Screening results as filed in PubChem.
ClpP mod – qHTS Assay for Activators of ClpP; purified B. subtilis ClpP, FRET peptide cleavage, 20 min; ATP-dependent Clp protease proteolytic subunit (Bacillus subtilis (strain 168)), P80244; 1.9% of 340,000 active; Potency, µM (series often up to 57.5 µM), for inactives: at the top dose activity change, negative = active; active = well fitted falling curve with a large enough effect; inconclusive = small, poorly fitted or top-dose-only effect; inactive = no such curve, though single readings can be large or run the other way; note: potency is the fitted concentration of half-maximal effect; the source files actives as falling curves though it sought activators and does not explain the sign; nearly all actives have a fitted effect of over 65% in size; many hits overshoot -100%
Target sequence (P80244 whole entry, looked up): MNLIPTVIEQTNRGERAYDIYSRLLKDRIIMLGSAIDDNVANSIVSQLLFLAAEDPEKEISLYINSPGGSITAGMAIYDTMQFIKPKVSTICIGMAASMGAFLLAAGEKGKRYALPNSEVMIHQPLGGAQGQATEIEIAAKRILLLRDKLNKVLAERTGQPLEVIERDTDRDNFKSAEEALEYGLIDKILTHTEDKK
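Buffer: 100 mM Tris/HCl pH8, 100 mM KCl, 0.05% low protease BSA, 2.5% glycerol, 0.01% Tween-20. ClpP 10 microg/mL final; 20 min RT; delta FRET normalized to ADEP and DMSO controls.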
gsp antag – antagonists of gsp mutant (McCune-Albright syndrome); AID 624288; gsp-mutant cells, cAMP HTRF, 30 min; control for the full effect not named in the record; Potency, µM (series often up to 76.9 µM), for inactives: at the highest dose activity change, negative = inhibition, most hits filed as inhibitors; 0.4% of 340,000 active; active = falling curve of any shape with a large fitted effect; inconclusive = falling curve, mostly with a smaller effect; inactive = flat or rising curve; cell line not stated here;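 note: intracellular cAMP measured with PDE inhibitor Ro 20-1724 present during compound exposure; potency is the fitted concentration of half-maximal effect; % is set by controls: 0 for no effect and ±100 for the full control effect; nearly all actives have a fitted effect of over 65% in size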
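HTRF cAMP measurement after 30 min RT detection following 30 min, 37C compound treatment alongside […] (added as 300 uM solution) in G418-selected cells seeded at 2000/well and grown 16–24 h.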
TRPV1 PAM – enhances activation of the human vanilloid receptor TRPV1; Q8NER1; TRPV1-expressing cells, Fluo-8 calcium influx, capsaicin EC20 potentiation; host cell line not named in the record; control for the full effect not named in the record; potentiation, % at 8.33 µM; 0.02% of 320,000 active; AID 540277; active means potentiation above 80%; inconclusive means 30% to 80%; inactive means below 30%; note: 0% is about no effect
Target sequence (Q8NER1 whole entry, looked up): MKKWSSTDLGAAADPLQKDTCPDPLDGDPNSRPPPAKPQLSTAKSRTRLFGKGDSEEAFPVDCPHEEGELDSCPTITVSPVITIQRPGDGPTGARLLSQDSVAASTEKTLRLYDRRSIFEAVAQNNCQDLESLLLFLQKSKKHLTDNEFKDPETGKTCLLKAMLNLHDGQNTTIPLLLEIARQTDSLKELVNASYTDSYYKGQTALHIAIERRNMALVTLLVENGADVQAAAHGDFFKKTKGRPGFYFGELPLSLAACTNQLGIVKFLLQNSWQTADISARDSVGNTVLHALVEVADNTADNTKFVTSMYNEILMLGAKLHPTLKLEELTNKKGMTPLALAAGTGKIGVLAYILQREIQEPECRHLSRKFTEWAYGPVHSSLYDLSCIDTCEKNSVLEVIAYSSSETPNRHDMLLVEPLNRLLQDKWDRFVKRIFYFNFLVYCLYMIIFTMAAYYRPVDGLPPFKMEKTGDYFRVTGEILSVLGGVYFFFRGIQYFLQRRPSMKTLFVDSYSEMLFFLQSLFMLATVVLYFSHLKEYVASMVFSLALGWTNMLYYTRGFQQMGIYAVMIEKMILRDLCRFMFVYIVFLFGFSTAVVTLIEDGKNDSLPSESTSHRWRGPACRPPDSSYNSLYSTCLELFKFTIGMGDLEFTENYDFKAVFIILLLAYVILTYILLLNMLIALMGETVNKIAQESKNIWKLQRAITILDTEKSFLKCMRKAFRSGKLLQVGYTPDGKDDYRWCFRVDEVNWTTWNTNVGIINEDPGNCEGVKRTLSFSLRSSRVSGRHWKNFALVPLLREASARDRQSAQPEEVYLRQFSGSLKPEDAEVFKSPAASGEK
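TRPV1-expressing cells were cultured overnight at 35.5C and loaded with Fluo-8 calcium dye for 40 to 90 min at room temperature. After a 10 s baseline, compound was added and calcium influx was read kinetically for 3 min (ex 480/em 520 nm).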
Sfp inh – inhibitors of Bacillus subtilis Sfp phosphopantetheinyl transferase | 3.5% of 310,000 active | Biochemical Sfp PPTase activity, qHTS | AID 1490 | Potency, µM, inactives show max response, negative = inhibition, usual class: inhibitors | Q9F4F7; active = well fitted inhibition curve with a large enough effect; inconclusive = small, poorly fitted or top-dose-only effect, or another doubt; inactive = no such curve, though single readings can be large or run the other way;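 note: the enzyme is Sfp with the accession as filed and its product quenches rhodamine fluorescence; potency is the fitted concentration of half-maximal effect; 0% = enzyme reaction without inhibitor and -100% = no enzyme wells; top concentration of the series not given in the record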
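Fluorescence-quenching assay with 15 nM Sfp, 5 uM rhodamine-CoA and 12.5 uM BHQ-2-labelled ybbR peptide in pH 7.6 Hepes/MgCl2 buffer. Enzyme was pre-incubated with compound for 15 min at room temperature. Rate was taken from the 30-min fluorescence change (525/598 nm).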
Menin MLL FP FL – displaces fluorescein MLL peptide from human menin | Fluorescence polarization, fluorescein-MLL peptide displacement from menin | FP activity change, % at 61.4 µM | 290,000 tested, under 10 active | AID 1766; inconclusive = falling polarisation curve, or a change in total fluorescence; inactive = total fluorescence flat and polarisation flat or rising; no compound was filed as active; the % refers to the polarisation; negative = inhibition;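 note: % of control where 0% means no effect; inhibitors lower the polarisation; unlabelled MLL peptide was the positive control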
gsp agonist – gsp mutant agonism | AID 624287 | gsp mutant cells, cAMP HTRF, 30 min; control for the full effect not named in the record | 0.13% of 340,000 active | Potency, µM (doses to about 76.9 µM), for the others: at the highest dose activation (cAMP increase), actives largely listed as activators; active = well fitted activation curve with a large enough effect; inconclusive = small, poorly fitted or top-dose-only effect, or another doubt; inactive = no such curve, though single readings can be large or run the other way; cell line not stated here;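 note: phosphodiesterase inhibitor Ro 20-1724 added with compounds to block cAMP breakdown; potency is the fitted concentration of half-maximal effect; nearly all actives have a fitted effect of over 60% in size; about a fifth of the inactives were tested at one dose only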
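Cells in DMEM/10% FBS with G418 were pretreated with compounds in DMSO plus […] (300 uM stock) for 30 min at 37C. cAMP was measured by HTRF (cAMP-d2 plus anti-cAMP antibody-K) after 30 min at room temperature.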
D2 PAM – potentiates the human D2 dopamine receptor allosterically | potentiation, % (test concentration not listed) | DiscoveRx D2 beta-arrestin cells, luminescence, 90 min; 100% = 57 uM dopamine signal | 0.23% of 360,000 active | P14416; active = potentiation of 50% or more; inconclusive = 30% to 50%; inactive = 30% or less;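 note: compound concentration not given in the record; tested on top of an EC20 dose of dopamine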
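PathHunter beta-arrestin assay in DiscoveRx D2 cells. Compounds were added with an EC20 of dopamine (50 nM final) for 90 min at 37 deg C. Luminescence was read 1 h after detection reagent, with 57 uM dopamine as the EC100 control.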
* hit, by the source's call; ? = inconclusive; . = not tested or not shown; & = joins results of further samples; [ ] = dose if it differs, or a comment. The order is random (roughly 5.1% active in at least one column).

SMILES	ClpP mod	gsp antag	TRPV1 PAM	Sfp inh	Menin MLL FP FL	gsp agonist	D2 PAM
CCN1CCN(C(=O)c2sc3ncnc(N4CCc5ccccc5C4)c3c2C)CC1	-5.5%	-11%	-20	-7%	-4.2	-5%	-9
O=c1[nH]c2cc3c(cc2cc1CN(Cc1nnnn1CC1CCCO1)C1CCCCC1)OCO3 (stereo unspecified)	?	-3%	-10	-8%	?	19%	-14
COc1ccc2cc(C#N)c(N3CCOCC3)nc2c1	-1.1%	-7%	?	0%	2.3	-10%[15.4 µM]	2
Cc1cccc(Nc2ncnc3onc(-c4cccc(Cl)c4)c23)c1	-13%	-30%	9	-2%	1.4	5%	12
COc1cccc(-c2nnc(SCc3ccc(C#N)cc3)n2Cc2ccco2)c1	-4.1%	-10%	0	?	4.2	-49%[inhibitor]	4
C[C@H]1CC[C@@]2(O[C@@H](CCO)C[C@@H](O)[C@@H]2O)O1	-2.1%	1%	-9	13%	-2.3	.	-4
O=C(/C=C/c1ccccc1[N+](=O)[O-])NCc1ccccc1Cl	-1.5%	-7%	-22	-6%	0.3	-56%[inhibitor]	-26
COC(=O)C1=C(N)c2c(F)cccc2C1(C#N)c1ccccc1 (stereo unspecified)	?	-5%	-5	-5%	-3.9	0%	-9
COc1ccc(-c2cc(C(=O)N3CCN(c4ncccn4)CC3)c3ccccc3n2)c(OC)c1	?	-18%	7	-2%	5.3	15%	-19
Cn1c(SCc2cc(=O)[nH]c3ccccc23)nnc1-c1ccco1	-1.3%	4%	6	18%	1.0	8%	2
CCOc1nc2cnccc2n(CC(=O)Nc2cccc(C)c2)c1=O	-0.3%	-3%	-2	2%	.	32%	-12
O=C(Nc1nc2c(s1)CCCC2)c1ccc2ncsc2c1	-0.2%	?	-9	25µM*	4.8	2%	4
N#Cc1cc2c(nc1S(=O)(=O)Cc1ccccc1)CCCC2	0.4%	2%	-11	-10%	1.7	-3%[15.4 µM]	6
COc1ccc(/C=N/n2cc(-c3ccc(OC)cc3)nc2N)cc1	-0.7%	-8%	-12	-4%	3.1	5%	0
O=C(Nc1ccncc1)c1ccc(-c2ccccc2)cc1	-12%	-15%	-27	12%	-3.3	0%	-5
Cc1cccc(COCC(Cc2ccccc2)N2CCN(C(=O)c3ccc(C(F)(F)F)cc3)CCC2=O)c1 (stereo unspecified)	0.5%	?	-13	-5%	0.9	.	-5
CCOC(=O)c1ccccc1NC(=O)C1CCN(c2ncnc3sc(C)c(C)c23)CC1	.	-3%	-4	.	.	-27%[15.4 µM]	0
O=S1(=O)CCOC[C@H](CC2CCCCC2)N1Cc1ccc(F)cc1	1.4%&2.4%	-7%	24	6%	3.3	2%	-7
CC1(C)CC2(CC(C)(C)NC(=O)N2)NC(=O)N1	-3.2%	-1%	-13	0%	1.0	-11%	-3
COc1ccccc1OCC(=O)Nc1ccc2c(c1)n(C)c(=O)n2C	0.0%	-18%	-10	-3%	-3.4	-7%[15.4 µM]	0
COc1ccc([C@H]2Oc3cc(O)cc(O)c3C(=O)C2[C@@H]2C(=O)c3c(O)cc(O)cc3O[C@@H]2c2ccc(OC)cc2)cc1 (stereo partly specified)	-1.9%	?	-19	-13%	?	.	-16
O=C(COC(=O)c1ccc(O)cc1O)c1ccc2c(c1)OCCO2	-0.4%	-18%	.	.	.	-20%	3
Cc1ccc(S(=O)(=O)n2c3ccc(Cl)cc3c3nc(C)sc32)cc1	0.1%	-21%	26	-15%	6.3	27%	4
Clc1cc(Cl)c(Cl)cc1Cl	-2.8%	6%	-3	.	.	.	-8
O=C(c1ccc(Br)o1)N(Cc1ccccc1)c1ccccn1	6.0%	-14%	6	7%	-4.7	2%	20
SMILES	ClpP mod	gsp antag	TRPV1 PAM	Sfp inh	Menin MLL FP FL	gsp agonist	D2 PAM
CC(=O)N1c2ccc(S(=O)(=O)NCCC(=O)N(C)Cc3ccccc3)cc2CC1C (stereo unspecified)	0.4%&1.6%	-9%	7	10%	-1.9	-5%	-7
N/C(COc1ncn(-c2ccccc2)n1)=N\S(=O)(=O)c1ccc(Cl)cc1Cl	.	-1%	-1	11%	-2.4	6%	4
COc1ccc(N/C(C)=C2/C(=O)C(=O)N(CCO)C2c2ccc([N+](=O)[O-])cc2)cc1 (stereo unspecified)	-3.2%	1%	10	24%	0.2	-72%[inhibitor]	-8
O=C(O)c1cccc(COc2ccccc2Cl)c1	-0.4%	-12%	-22	12%	3.1	-5%	-13
CCOC(=O)c1ccccc1NC(=O)c1cccnc1	1.2%	2%	-7	-4%	1.3	17%	-7
CC1CCC(NC(=O)COC(=O)C2CC3CCCC(C2)C3=O)CC1 (stereo unspecified)	0.6%	12%	0	.	.	7%	5
Cc1ccc(NC(=O)CCN2C(=O)c3ccccc3S2(=O)=O)cc1F	-0.1%	-8%	12	.	.	14%[15.4 µM]	-10
O=C1C(=Nc2cccc(Cl)c2)CC(c2ccc(Cl)cc2)N1c1cccc(Cl)c1 (stereo unspecified)	-26%	4%	1	10%	2.0	-3%	3
CCOc1ccc(S(=O)(=O)N2CCCCC2)cc1NC(=O)Cc1ccc(OC)cc1	0.5%	.	.	.	.	-277%[inhibitor]	4
CC1=C(C)/C(=N\OS(=O)(=O)c2ccccc2)C=CC1=O	-0.6%	?	6	40µM*	3.0	4%	6
N#Cc1ccccc1Sc1ccccc1N	-2.8%	-9%	.	-2%	0.8	7%	-6
Cc1occc1-c1nnc(SCC(=O)N2CCCCC2)o1	0.3%	0%	-5	21%	4.1	7%	-6
Cc1ccc(S(=O)(=O)N(CC(=O)NCc2cccs2)c2ccccc2)cc1	-2.4%	0%	12	.	.	-25%	14
O=C(C1=C[C@@H](C2CCCCC2)C[C@@H](OCCCCO)O1)N1CCOCC1	0.3%	8%	-8	-11%	0.0	.	-6
CCOC(=O)c1[nH]c2c(c1C)C(=O)CC(c1ccco1)C2 (stereo unspecified)	0.7%	6%	6	25µM*	0.6	?	0
CC(C(=O)OCC(=O)Nc1ccc2c(c1)OCO2)N1C(=O)c2ccccc2C1=O (stereo unspecified)	1.7%	-1%[15.4 µM]	1	-1%	4.9	-3%	-4
CCOc1ccccc1NC(=O)CNS(=O)(=O)c1ccc2nc(C)sc2c1	-0.4%	10%	-11	14%	1.5	-19%	-3
O=C(CN1CCN(c2ccc(O)cc2)CC1)Nc1cc(S(=O)(=O)N2CCCCC2)ccc1Cl	.	?	-6	56µM*	-5.6	-6%[15.4 µM]	11
S=c1[nH]c2ccccc2c2ccccc12	2.8%	3%	24	50µM*	-1.5	?	3
O=C(Nc1ccc2c(c1)OCO2)c1sc2cc(Cl)ccc2c1Cl	33%	-12%	-9	5%	?	8%	-6
COc1cc(C2NC(=O)NC(C)=C2C(=O)NCc2ccccc2)c(Cl)cc1O (stereo unspecified)	-1.1%	5%	5	13%	1.4	-6%	-5
O=C1Nc2ccc(C(F)(F)F)cc2N2CCCC12 (stereo unspecified)	.	.	5	10%	11	.	.
CCc1cc(C(=O)Nc2ccc(S(=O)(=O)NC3=NCCCCC3)cc2)sc1C	.	-16%	-3	.	.	-40%[15.4 µM]	-1
c1ccc(CCc2nn3c(-c4ccncc4)nnc3s2)cc1	0.9%	5%	21	?	4.0	?	1
CN1CCN(c2ccc(CNS(=O)(=O)Cc3ccc(Cl)cc3)cc2)CC1	-2.2%	12%	-15	-5%	4.9	4%	-7

Copied from the list:
CCOc1ccc(S(=O)(=O)N2CCCCC2)cc1NC(=O)Cc1ccc(OC)cc1 @ ClpP mod = 0.5%
O=C(Nc1ccncc1)c1ccc(-c2ccccc2)cc1 @ gsp antag = -15%

Further results follow:
SMILES	ClpP mod	gsp antag	TRPV1 PAM	Sfp inh	Menin MLL FP FL	gsp agonist	D2 PAM
CCOC(=O)c1oc2ccccc2c1NC(=O)c1cccc(OC)c1	?	-8%	-23	-1%	3.9	12%	-9
NS(=O)(=O)c1ccc(NC(=O)COc2ncnc3c2cnn3-c2ccccc2)cc1	-3.9%	11%	17	15%	0.2	-1%	-2
CCOc1ccc(C(=O)Nc2cccc(NC(=O)c3cccs3)c2)cc1[N+](=O)[O-]	0.6%	-18%	-3	8%	0.8	-2%	-7
Cc1ccccc1Nc1c(-c2cccnc2)nc2ccc(Br)cn12	-1.8%	?	-22	-13%	4.7	-9%	-3
CCN1CCN(C(=O)c2ccc3c(=O)n(Cc4ccccc4OC)c(=S)[nH]c3c2)CC1	-0.6%	1%	0	-1%	1.7	17%	-17
CCC(CC)c1nnc(NC(=O)c2ccc(N3CCCC3=O)cc2)s1	-2.4%	5%	17	3%	2.6	-4%	-3
O=C(CCCNC(=O)c1ccc(Cl)cc1)Nc1ccc(S(=O)(=O)Nc2ncccn2)cc1	-0.4%	4%	25	22%	6.3	-16%	-3
COc1ccccc1NC(=O)c1cnc(SC)nc1	3.1%	8%	-1	9%	-4.9	-12%	-2
Cc1ccc(C2(c3ccc(C)cc3)NC(=O)N(CC(=O)NCCCN3CCCC3=O)C2=O)cc1	-1.7%	7%	.	.	.	3%	-6
C=CCn1c(-c2cccs2)nc2ccccc21	2.8µM*	1%	?	?	-5.1	27%	-11
CC(=O)n1cc(/C=N/NC(N)=S)c2ccccc21	.	-1%	4	-17%	-1.4	4%[15.4 µM]	1
COCC(=O)N1CCCC(N(C)CCc2ccc(OC)c(OC)c2)C1 (stereo unspecified)	0.2%	4%	9	17%	-2.4	-3%	-2
COc1ccc(-n2c(Cc3cccn3C)nnc2SCC(=O)Nc2cc(Cl)ccc2OC)cc1	-0.6%	-24%	-7	-7%	-0.7	-59%[inhibitor]	-6
O=C1NC[C@H](Cc2ccc(O)cc2)N(CC2CCCCC2)C1=O	-1.5%	9%	-12	13%	-1.0	-15%	-1
CCOC(=O)CN1C(=O)c2ccccc2Sc2ncccc21	0.4%&-1.1%	0%	-2	14%	-0.2	27%	-3
CC1CCCCC1NC(=O)c1cccc(S(=O)(=O)N2CCN(C)CC2)c1 (stereo unspecified)	-5.0%	-5%	0	.	.	9%	-15
COc1ccc2[nH]c(C(O)(Cc3cccnc3)Cc3cccnc3)cc2c1	-3.2%	6%	0	18%	2.7	25%[15.4 µM]	-7
